Screening data: PubChem BioAssay, Southern Research Institute
Mtb H37Rv – Confirmatory growth inhibition assay against Mycobacterium tuberculosis H37Rv, potency (AID 1949) | hit rate 1.6% among 100,000 | most inactive calls were filed without a number and no value below 0 was filed | one-dose inhibition, % at 10 µg/mL; IC50 in µg/mL for titrated hits;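 active means confirmed in a dose series; inconclusive means about 50% or more but not retested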;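 further: bacteria grown 7 days with compound before Alamar blue readout; 0% = untreated bacteria and 100% = reference antibiotic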
* = called active by the depositor; i = inactive; ? = inconclusive. The list is partial, so the mix of outcomes need not match the whole.

SMILES	Mtb H37Rv
COc1ccccc1NC(=O)C(=O)NCCc1ccc(Cl)cc1	i
CS(=O)(=O)N(Cc1ccccc1)c1ccccc1C(=O)NCc1ccc(Cl)cc1	i
Cc1cc(Cl)ccc1OCC(=O)Nc1nnc(C(F)(F)F)s1	i
CC(=O)NCCOc1nc(N(C)C)nc(N2CCOCC2)n1	i
O=c1cc(-c2ccc(O)cc2)[nH]c(=S)[nH]1	28%
COC(=O)C1=CN(CCc2ccc(OC)cc2)C=C(C(=O)OC)C1c1ccc(C(F)(F)F)cc1	3%
CCN(CC)C(=O)C(=O)Nc1cccc(C(F)(F)F)c1	i
CC(C)CC(=O)NC(=S)Nc1ccccc1C#N	i
CC(=O)c1cccc(NC(=O)c2c(-c3ccccc3)noc2C)c1	i
COc1ccc(OC)c(NC(=O)COc2ccc(Br)cc2)c1	i
CC(CC(=O)C1C(C)C=CCC1(C)C)NNC(=O)c1ccncc1 (centres undefined)	?
CCOC(=O)N1CCN(C(=O)c2ccc(I)cc2)CC1	i
O=S(=O)(Cc1ccc(Cl)cc1)NCCN1CCOCC1	i
CCOc1cc(C(c2c[nH]c3ccccc23)c2c[nH]c3ccccc23)ccc1O	28%
O=S(=O)(Oc1ccc(Cl)cc1Cl)c1ccc(Br)cc1	4%
COc1ccccc1N1CCN(C(=O)CN(CCc2ccccc2)S(C)(=O)=O)CC1	i
COc1ccc(S(=O)(=O)N(CC(=O)Nc2cccc(N(C)S(C)(=O)=O)c2)c2ccc(Cl)cc2)cc1	i
COc1ccc(NC(=O)C(C)NS(=O)(=O)c2ccc(C)cc2)cc1OC (centres undefined)	i
Cc1cc(Br)ccc1OCC(=O)N1CCC(Cc2ccccc2)CC1	i
Cc1ccc(S(=O)(=O)N2C(=O)CCC2C(=O)Nc2ccc(Br)cc2F)cc1 (centres undefined)	i
Cc1ccccc1NC(=O)Cn1cnc2sc(C)c(C)c2c1=O	i
O=C(COc1ccccc1)Nc1ccc(Oc2ccc3c(c2)C(=O)NC3=O)cc1	i
O=C(CC1CCCCC1)Nc1ccccc1C(F)(F)F	i
Cc1ccc(NC(=O)CCC(=O)NNC(=O)Nc2ccccc2C(F)(F)F)cc1C	i
CCOC(=O)c1c(C)[nH]c2cc(Br)c(O)cc12	i

For convenience, part of the list above:
SMILES	Mtb H37Rv
COc1ccccc1NC(=O)C(=O)NCCc1ccc(Cl)cc1	i
CS(=O)(=O)N(Cc1ccccc1)c1ccccc1C(=O)NCc1ccc(Cl)cc1	i
Cc1cc(Cl)ccc1OCC(=O)Nc1nnc(C(F)(F)F)s1	i
CC(=O)NCCOc1nc(N(C)C)nc(N2CCOCC2)n1	i

Returning to the listing with the 4 entries that preceded the break.
SMILES	Mtb H37Rv
O=C(COc1ccccc1)Nc1ccc(Oc2ccc3c(c2)C(=O)NC3=O)cc1	i
O=C(CC1CCCCC1)Nc1ccccc1C(F)(F)F	i
Cc1ccc(NC(=O)CCC(=O)NNC(=O)Nc2ccccc2C(F)(F)F)cc1C	i
CCOC(=O)c1c(C)[nH]c2cc(Br)c(O)cc12	i
CC(C)(C)c1ccc(Oc2ccc(NC(=O)C3CC=CCC3C(=O)O)cc2)cc1 (centres undefined)	i
COc1cc2c(cc1OC)C(c1ccc(Cl)s1)CC(=O)N2 (centres undefined)	i
CCCNS(=O)(=O)c1cc(C)c(Br)cc1C	i
COCCNC(=O)NC12CC3(C)CC(C)(CC(C)(C3)C1)C2	i
COc1ccccc1NC(=O)c1cccc(COc2ccc3ccccc3c2)c1	23%
Cc1occc1C(=O)Nc1ccc(OCc2ccccc2)cc1	16%
Cc1nnc(SCc2ccc(C(C)(C)C)cc2)n1N	i
O=C(Nc1nc(-c2ccc(Cl)c(Cl)c2)cs1)c1ccc2c(c1)OCO2	i
N#Cc1c2ncn(CC(=NO)c3ccccc3)c(=O)c2c2n1CCC2	i
CCOc1ccc(C(=O)NC(=S)Nc2cccc(Cl)c2)cc1Br	i
O=C(Nc1ccc(Oc2ccc(F)cc2)c(C(F)(F)F)c1)c1ccccc1[N+](=O)[O-]	i
Cc1ccc(C2=CC(c3ccc(Cl)cc3)n3nc(N4C(=O)CCC4=O)nc3N2)cc1 (centres undefined)	i
Cc1ccc(Cn2c(C3CC(=O)N(c4ccc(C)cc4C)C3)nc3ccccc32)cc1 (centres undefined)	i
CCCNC(=O)c1cccc(COCC(F)(F)C(F)F)c1	i
CC1(C)CC(=O)C2=C(C1)N(CC1CCCO1)C(=O)NC2(C(F)(F)F)C(F)(F)F (centres undefined)	i
CC(C)Cc1nc(SC(C)C(=O)Nc2cccc(Cl)c2)n[nH]1 (centres undefined)	i
CC(NS(=O)(=O)c1ccc(CCC(=O)Nc2cccc(C(F)(F)F)c2)cc1)c1ccccc1 (centres undefined)	i
O=C(NCCc1ccccc1F)C1CCCN1S(=O)(=O)c1ccccc1 (centres undefined)	i
Cc1c(C(=O)c2ccccc2)n(C)c2ccccc12	4%
CC(C)(C)OC(=O)N1CCCC1C(=O)Oc1cc2oc(=O)c3c(c2cc1Cl)CCC3 (centres undefined)	6%
CC(c1ccccc1)N1CC23C=CC(O2)C(C(=O)O)C3C1=O (centres undefined)	i
COc1ccc(CN2CCC(N3CCN(c4ccccc4F)CC3)CC2)cc1OCc1ccccc1	8%
CN1CCN(CCOc2ccccc2-c2ccccc2)CC1	0%
[O-][n+]1onc2c1CCc1c-2nc(-c2ccccc2F)n1O	i
COc1ccc2c(Cl)c(C(=O)Nc3ccc(N4CCOCC4)cc3)sc2c1	1%

The listing continues.
SMILES	Mtb H37Rv
Cc1cc(C)c(C#N)c(SCc2ccccc2F)n1	i
Cc1cccc(NC(=O)CN(C2CCCCC2)S(=O)(=O)c2ccccc2)c1	i
COc1cc(OC)c(C(=O)Nc2nnc(C)s2)cc1OC	i
CC(C)C(=O)N1CCN(c2ccc(NC(=O)c3ccc(Br)o3)cc2)CC1	i
CCNS(=O)(=O)c1ccc(NC(=S)Nc2ccc([N+](=O)[O-])cc2)cc1	i
Cc1ccccc1N(CC(=O)N1CCc2ccccc2C1)S(C)(=O)=O	5%
CCOC(=O)c1c(N)nn(C(=O)C(C)C)c1-c1ccccc1	i
Cc1ccccc1OCCCCn1ccnc1	i
OCCCc1nc2ccccc2n1Cc1c(F)cccc1Cl	i
Cc1cccc(C2(c3cccc(C)c3)CC2C(=O)Nc2cc([N+](=O)[O-])ccc2O)c1 (centres undefined)	4%
Cc1ccsc1C=Nn1c(-c2ccccc2)n[nH]c1=S	i
O=C(COc1ccc(Br)cc1)Nc1ccc(Cl)cc1C(=O)O	i
COc1cc(C(=O)Nc2ccccc2C(=O)Nc2ccc(Cl)cc2)cc(OC)c1OC	i
CCC(CC)C(=O)Nc1sc(C)c(C)c1C(N)=O	i
O=C(CSc1nc2sc3c(c2c(=O)n1C1CCCCC1)CCCC3)N1CCCCC1	3%
O=C(COc1ccccc1Cl)Nc1ccc(C(F)(F)F)cc1	i
Oc1cccc(C(=S)N2CCN(Cc3ccccc3)CC2)c1	i
COc1cc(NC(=O)c2cc(Cl)cc(Cl)c2OC)ccc1NC(=O)c1ccccc1Cl	1%
Cn1nc(-c2ccc(C(=O)Nc3ccc(F)cc3)cc2)c2ccccc2c1=O	i
O=C1c2[nH]nc(-c3ccccc3)c2C(c2ccccc2)N1c1ccccc1 (centres undefined)	?
CCOC(=O)C(C)Oc1c(Br)cc(C=O)cc1OC (centres undefined)	i
CCNC(=O)c1cc(Br)c(OC)c(OC)c1	5%
CC(C)CNc1nc(=S)nc(N2CCOCC2)[nH]1	i
COc1cc(OC)c(NC(=O)c2cc(C)ccc2C)cc1Cl	i
Cc1cc(C)c(NC(=O)COc2ccccc2C(=O)Nc2ccc3c(c2)oc2ccccc23)c(C)c1	i

New compounds follow
SMILES	Mtb H37Rv
O=C(CCN1CCCC1)Nc1nccs1	i
c1ccc(-c2ccc(OCCCNC3CCCC3)cc2)cc1	i
C=CCn1c2ccccc2c2nnc(SCC(=O)Nc3nccs3)nc21	i
O=C(CSc1ccccc1)NC1CCCCCCC1	i
Nc1nc(-c2ccccc2)nn1C(=O)c1ccc(F)cc1	i
Cc1ccc(NC(=O)CSc2nnc(-c3ccc(N)cc3)n2C)cc1Cl	i
Cc1ccccc1NC(=S)NC(=O)c1ccccc1C	4%
CC(C)CNC(=O)c1cccc(NC(=O)c2ccc3c(c2)C(=O)N(C)C3=O)c1	i
CCCCS(=O)(=O)c1nc(-c2ccccc2)cc(-c2ccccc2)c1C#N	i
COc1ccc(C(=O)O)cc1NC(=S)NC(=O)c1cc(Br)ccc1Cl	i
COc1ccccc1N(CC(=O)N1CCC(C(N)=O)CC1)S(=O)(=O)c1ccccc1	i
O=C(Cc1ccccc1)Nc1ccc(Br)c(Cl)c1	i
Cc1cccc(C(=O)NC(=S)Nc2ccccc2C(N)=O)c1	7%
COC(=O)c1ccc(Cl)c(NC(=O)CN2CCN(C)CC2)c1	i
CC(c1ccccc1)n1c(S(=O)(=O)O)nc2ccccc21 (centres undefined)	6%
CC1=C(C(=O)OCc2ccccc2)C(c2ccc(C(F)(F)F)cc2)NC(=O)N1 (centres undefined)	i
O=C(CCc1ccccc1)Nc1nnc(Cc2c[nH]c3ccccc23)s1	10%
CCN(CC)c1ccc([N+](=O)[O-])cc1C(=O)Nc1cccc(C)c1	3%
Cc1sc2nc(SCc3ccccc3Cl)n(C)c(=O)c2c1C	i
N#Cc1ccccc1NC(=O)Cc1c(F)cccc1Cl	4%
O=[N+]([O-])c1ccc(CSc2ccccc2)cc1	i
COCCCNCCCCOc1ccc(C(C)C)c(C)c1	i
CCOC(=O)c1ccc(N2C(=O)CC(C(=O)OC)=C2C)cc1	?
Cc1ccc(NC(=O)CSc2nnc3ccccn23)cc1	i
CC(=O)C(Sc1ccc(Br)cc1)C(C)=O	19%

Four of the compounds above, as labelled records.
> O=C(Cc1ccccc1)Nc1ccc(Br)c(Cl)c1
  Mtb H37Rv: i
> Cc1cccc(C(=O)NC(=S)Nc2ccccc2C(N)=O)c1
  Mtb H37Rv: 7%
> COC(=O)c1ccc(Cl)c(NC(=O)CN2CCN(C)CC2)c1
  Mtb H37Rv: i
> CC(c1ccccc1)n1c(S(=O)(=O)O)nc2ccccc21 (centres undefined)
  Mtb H37Rv: 6%

A draw from above in order of number of heavy atoms, highest first:
SMILES	Mtb H37Rv
O=C(Nc1ccc(Oc2ccc(F)cc2)c(C(F)(F)F)c1)c1ccccc1[N+](=O)[O-]	i
Cc1cc(Cl)ccc1OCC(=O)Nc1nnc(C(F)(F)F)s1	i
O=[N+]([O-])c1ccc(CSc2ccccc2)cc1	i

Going on with the list.
SMILES	Mtb H37Rv
Cc1ccnc(NC(=O)c2ccc(COc3ccc(Cl)cc3)o2)c1	i
Cc1ccc(-c2noc(CN(C(=O)c3cc(C)ccc3C)C(C)C)n2)cc1	5%
Cc1cc(Cl)c(OCCCCN2CCOCC2)c(Br)c1	i
O=C(O)CCC(=O)N1CC=C(c2ccccc2)CC1	i
Cc1cc(C(=O)Nc2c(C)n(C)n(-c3ccccc3)c2=O)sc1-c1ccccc1	i
COc1ccc(CNC(=S)NCc2ccc(F)cc2)cc1	50%
CC(C)NC(=O)COc1ccc(Br)cc1C(C)(C)C	6%
CC(C)(C)C(=O)CSc1nnc(-c2ccncc2)n1-c1ccc(Cl)cc1	i
NC(=O)c1ccccc1NC(=O)CN(c1cccc(Cl)c1)S(=O)(=O)c1ccccc1	i
S=C(NCCc1ccccc1)Nc1cnc2ccccc2c1	i
CC(C)OC(=O)c1ccc(Oc2nc(N(C)C)nc(N(C)C)n2)cc1	i
CCOC(=O)Cn1nc(-c2ccccc2)c2ccccc2c1=O	i
O=C(CC(F)(F)F)Nc1ccccn1	i
CCCCC(=O)OC1CC(C)N(C(=O)c2ccccc2)c2ccc(C)cc21 (centres undefined)	10%
O=C(COc1ccccc1)Nc1cccc(-c2nc3ccccc3[nH]2)c1	11%
O=C1N/C(=N\N=C\c2ccco2)SC1Cc1ccc(Cl)c(Cl)c1 (centres undefined)	i
Cn1cnnc1SCC(=O)c1ccc2c(c1)OCO2	i
O=C(Nc1ccc(F)c(Cl)c1)c1ccccc1Cl	i
COc1ccc(S(=O)(=O)NC(C)c2ccccc2)cc1Cl (centres undefined)	i
Cc1ccc(N2C(=O)NC(=O)C(CCc3ccccn3)(Cc3ccc(F)cc3)C2=O)cc1 (centres undefined)	i
CCOC(=O)CSc1[nH]c2cc(OC)ccc2c1[N+](=O)[O-]	41%
CCCn1nnc(NC(=O)c2cccc(C)c2OC)n1	i
O=C1CC(c2c[nH]c3ccccc23)C(=O)N1 (centres undefined)	i
CCOCCCNC(=O)C(CC)c1ccccc1 (centres undefined)	i
COc1ccc(OC)c(NC(=O)c2cc(-c3ccc(C)cc3)nc3ccccc23)c1	i

Additional records:
SMILES	Mtb H37Rv
CCc1nc2sc3c(c2c2nnnn12)CC(C)(C)OC3	i
CN(C)CCCNCCOc1ccccc1	i
Cc1cc(OCC(=O)c2ccc(F)cc2)ccc1N1C(=O)CCC1=O	i
COCCCNC(=O)c1c(NC(=O)c2ccc(F)cc2)sc2c1CCCC2	7%
CCOc1ccccc1NC(=O)c1cc2cc(OC)ccc2oc1=O	i
CCOC(=O)c1cnc2c(OC)cccc2c1NCCCN1CCOCC1	i
CCCC(=O)N1CC2(C)CN(C(=O)CCC)CC(C)(C1)C2O (centres undefined)	i
CC1CCN(c2ccc(-c3nn(C)c(=O)c4ccccc34)cc2[N+](=O)[O-])CC1	i
O=[N+]([O-])c1ccc(C(=S)N2CCC(Cc3ccccc3)CC2)cc1	i
N/C(=N\c1nc(CSc2ccc(Cl)cc2)cc(=O)[nH]1)Nc1ccccc1	i
CC1CCC(NC(=O)c2ccccc2SCc2ccccc2)CC1 (centres undefined)	9%
CCCCSC1=C(C#N)C(c2ccccc2OCC)C(C(=O)OCC)C(=O)N1 (centres undefined)	i
CN(Cc1ccccc1)S(=O)(=O)c1ccc(NC(=O)COc2ccccc2)cc1	1%
CCOC(=O)c1sc(NC(=S)NC(=O)c2ccc(C(C)(C)C)cc2)c(C(=O)OCC)c1C	0%
